Screening data as filed in PubChem.
TRPML1 inh: qHTS for Inhibitors of the Human Mucolipin Transient Receptor Potential 1 (TRPML1). TRPML1-inducible cells, Ca2+ dye fluorescence, FDSS; hits give low values; inhibition of EC80 agonist-evoked calcium signal. 390,000 tested, 0.02% active. activity change, negative = inhibition, % (no concentration beside the values). Mucolipin-1 (Homo sapiens), Q9GZU1; in the data active means activity change below about -50%; inconclusive means about -30% to -50%; inactive means above about -30%;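 further: stimulus is agonist 54-4 at its EC80 concentration; on the % scale 0 is the no-effect control and ±100 the full control effect; compound concentration not given in the record; the text of the record puts the active cut at -80%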
Target sequence (Q9GZU1 whole entry, looked up): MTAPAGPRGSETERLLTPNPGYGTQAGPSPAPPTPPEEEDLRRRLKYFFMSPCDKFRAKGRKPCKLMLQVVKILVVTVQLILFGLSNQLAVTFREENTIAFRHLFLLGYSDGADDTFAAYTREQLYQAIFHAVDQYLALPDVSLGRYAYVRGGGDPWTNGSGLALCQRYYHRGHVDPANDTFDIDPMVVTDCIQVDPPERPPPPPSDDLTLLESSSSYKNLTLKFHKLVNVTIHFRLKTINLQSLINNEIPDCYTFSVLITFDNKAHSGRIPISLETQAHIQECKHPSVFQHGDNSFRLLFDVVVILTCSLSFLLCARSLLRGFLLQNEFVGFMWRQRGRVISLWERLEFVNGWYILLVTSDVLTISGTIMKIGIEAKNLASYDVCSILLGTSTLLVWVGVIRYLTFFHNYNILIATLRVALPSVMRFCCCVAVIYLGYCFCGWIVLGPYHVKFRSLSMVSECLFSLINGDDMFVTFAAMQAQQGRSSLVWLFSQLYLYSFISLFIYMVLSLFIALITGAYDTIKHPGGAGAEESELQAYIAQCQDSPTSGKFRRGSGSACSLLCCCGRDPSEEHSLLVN
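Tet-induced TRPML1-DL cells loaded with Ca8 no-wash calcium dye were read kinetically on FDSS. Compound addition was followed by EC80 agonist 54-4 (4 uM final); inhibition was read over 110 s.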
TRPV1 PAM: HTS Assay for Compounds that Act as Potentiators of the Vanilloid Receptor 1. Transient receptor potential cation channel subfamily V member 1 (Homo sapiens), Q8NER1. TRPV1-expressing cells, Fluo-8 calcium influx, capsaicin EC20 potentiation; host cell line not named in the record; control for the full effect not named in the record. potentiation, % at 8.33 µM. 320,000 tested, 0.02% active. AID 540277, 2011; active means potentiation above 80%; inconclusive means 30% to 80%; inactive means below 30%; further: 0% is about no effect
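TRPV1-expressing cells were cultured overnight at 35.5C and loaded with Fluo-8 calcium dye for 40 to 90 min at room temperature. After a 10 s baseline, compound was added and calcium influx was read kinetically for 3 min (ex 480/em 520 nm).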
gsp antag: qHTS for Antagonists of gsp, the Etiologic Mutation Responsible for Fibrous Dysplasia/McCune-Albright Syndrome: qHTS | gsp-mutant cells, cAMP HTRF, 30 min; control for the full effect not named in the record | Potency, µM (series often up to 76.9 µM), for the others: at the highest dose activity change, negative = inhibition, usual class: inhibitors | 340,000 tested, 0.4% active; active = falling curve of any shape with a large fitted effect; inconclusive = falling curve, mostly with a smaller effect; inactive = flat or rising curve; cell line not stated here;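 further: intracellular cAMP measured with PDE inhibitor Ro 20-1724 present during compound exposure; potency means the concentration at half of the fitted maximal effect; on the % scale 0 is the no-effect control and ±100 the full control effect; nearly all actives have a fitted effect of over 65% in size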
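Cells in G418 medium, seeded 16-24 h, 37C; buffer exchange to DPBS + 1 mM CaCl2, 0.5 mM MgCl2, 0.05% BSA; cpds in DMSO + […] (300 uM stock), 30 min 37C; HTRF cAMP detection.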
Sfp inh: qHTS Assay for Inhibitors of Bacillus subtilis Sfp phosphopantetheinyl transferase (PPTase). 4'-phosphopantetheinyl transferase ffp (Bacillus subtilis), Q9F4F7. Potency, µM, inactives show max response, negative = inhibition, hits mostly inhibitors. Biochemical Sfp PPTase activity, qHTS. 310,000 tested, 3.5% active. AID 1490, 2009; active means well fitted inhibition curve with a large enough effect; inconclusive means small, poorly fitted or top-dose-only effect, or another doubt; inactive means no such curve, though single readings can be large or run the other way;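 further: the enzyme is Sfp with the accession as filed and its product quenches rhodamine fluorescence; potency means the concentration at half of the fitted maximal effect; 0% = enzyme reaction without inhibitor and -100% = no enzyme wells; top concentration of the series not given in the record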
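Sfp 15 nM + cpd, 15 min RT; start w/ rhodamine-CoA 5 uM, BHQ-2-YbbR 12.5 uM (final); 50 mM Hepes pH 7.6, 10 mM MgCl2, 0.01% NP-40, 0.01% BSA; read 525/598 nm at 0 and 30 min.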
Menin MLL FP FL: qHTS Assay for Inhibitors Targeting the Menin-MLL Interaction in MLL Related Leukemias: Competition With Fluorescein Labeled MLL-derived Peptide; Fluorescence polarization, fluorescein-MLL peptide displacement from menin; FP activity change, % at 61.4 µM; 290,000 tested, under 10 active; inconclusive = falling polarisation curve, or a change in total fluorescence; inactive = total fluorescence flat and polarisation flat or rising; no compound was filed as active; the % refers to the polarisation; negative = inhibition;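 further: % of control where 0% means no effect; inhibitors lower the polarisation; unlabelled MLL peptide was the positive control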
gsp ag: qHTS for Agonist of gsp, the Etiologic Mutation Responsible for Fibrous Dysplasia/McCune-Albright Syndrome: qHTS. AID 624287, 2012. gsp mutant cells, cAMP HTRF, 30 min; control for the full effect not named in the record. Potency, µM (highest dose often 76.9 µM), for inactives: at the highest dose activation (cAMP increase), usual class: activators. 340,000 tested, 0.13% active; active = well fitted activation curve with a large enough effect; inconclusive = small, poorly fitted or top-dose-only effect, or another doubt; inactive = no such curve, though single readings can be large or run the other way; cell line not stated here;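 further: phosphodiesterase inhibitor Ro 20-1724 added with compounds to block cAMP breakdown; potency means the concentration at half of the fitted maximal effect; nearly all actives have a fitted effect of over 60% in size; about a fifth of the inactives were tested at one dose only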
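Cells in DMEM/10% FBS with G418 were pretreated with compounds in DMSO plus […] (300 uM stock) for 30 min at 37C. cAMP was measured by HTRF (cAMP-d2 plus anti-cAMP antibody-K) after 30 min at room temperature.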
ClpP mod: qHTS Assay for Activators of ClpP; ATP-dependent Clp protease proteolytic subunit (Bacillus subtilis (strain 168)), P80244; purified B. subtilis ClpP, FRET peptide cleavage, 20 min; Potency, µM (doses to about 57.5 µM), inactives show top-dose activity change, negative = active; 340,000 tested, 1.9% active; AID 651965, 2013; active = well fitted falling curve with a large enough effect; inconclusive = small, poorly fitted or top-dose-only effect; inactive = no such curve, though single readings can be large or run the other way; further: potency means the concentration at half of the fitted maximal effect; the source files actives as falling curves though it sought activators and does not explain the sign; nearly all actives have a fitted effect of over 65% in size; many hits overshoot -100%
Target sequence (P80244 whole entry, looked up): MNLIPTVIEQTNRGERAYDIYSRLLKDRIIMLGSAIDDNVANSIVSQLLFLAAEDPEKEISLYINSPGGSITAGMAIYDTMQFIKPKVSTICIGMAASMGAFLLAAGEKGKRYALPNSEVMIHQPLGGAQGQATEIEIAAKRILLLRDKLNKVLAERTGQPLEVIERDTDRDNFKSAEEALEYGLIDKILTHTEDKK
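Buffer: 100 mM Tris/HCl pH8, 100 mM KCl, 0.05% low protease BSA, 2.5% glycerol, 0.01% Tween-20. ClpP 10 microg/mL final; 20 min RT; delta FRET normalized to ADEP and DMSO controls.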
* = called active by the depositor; ? = inconclusive; . = no result given; [ ] = another dose, or the depositor's remark.

molecule | gsp ag | ClpP mod | Menin MLL FP FL | gsp antag | TRPML1 inh | Sfp inh | TRPV1 PAM
CCn1c(COc2ccc3c(c2)OCO3)nnc1SCC(=O)O | 8% | -8.0% | -0.2 | 8% | 36 | -11% | ?
CN(C)CCCN(C(=O)c1cc2cc([N+](=O)[O-])ccc2s1)c1nc2cc3c(cc2s1)OCCO3 | 1% | -1.3% | . | -10% | -1 | . | 8
CC(=O)Nc1ccc(S(=O)(=O)O)c(OC(C)=O)c1 | -4% | . | . | 9% | 10 | . | .
Cn1c(SCC(=O)NCC2CCCO2)ncc(C(=O)Nc2ccc(Cl)cc2)c1=O (stereo not given) | 13%[15.4 µM] | . | . | 1% | 17 | . | -12
Cc1cccc(NS(=O)(=O)c2ccc3oc(=O)ccc3c2)c1C | -37%[inhibitor] | -4.7% | -7.0 | -5% | . | 2% | 1
COc1cccc(-c2csc(N3CCN(C(=O)Nc4ccc(Cl)cc4)CC3)n2)c1 | -25% | -2.4% | 2.5 | ? | 6 | 13% | -2
Cc1cc(C)c(S(=O)(=O)N2CCC(C(N)=O)CC2)cc1C | -29% | 0.6% | -0.5 | 2% | -2 | 11% | 5
Cc1ccccc1-n1nc(C)c2c(C(=O)NN)cc(-c3ccncc3)nc21 | -7%[15.4 µM] | . | -1.5 | . | -6 | 7% | 6
CCOC(=O)N1CCN(Cc2ccccc2F)CC1 | -24% | 0.0% | 2.7 | -3% | -2 | 15% | -9
CCOC(=O)C1(CC2CCCCO2)CCN(C(=O)Nc2ccc(C(=O)OC)cc2)CC1 (stereo not given) | -2% | -3.8% | -2.6 | 2% | 23 | -2% | -20
Nn1c(Cc2cccc3ccccc23)nnc1SCc1c(Cl)cccc1Cl | -25% | 1.2% | 1.7 | 15% | 20 | 3% | -5
O=C1c2ccc(Oc3cccc([N+](=O)[O-])c3)cc2C(=O)N1c1ccccn1 | -36%[inhibitor] | 1.5% | 0.6 | 37%[activator] | 9 | 0% | 1
CC(C)(C)NC(=O)Cn1c(SCC(=O)NCc2cccs2)nc2ccccc21 | ? | -2.9% | -1.4 | 4% | 2 | 11% | 20
COc1ccccc1NC(=O)CNC(=O)Cn1cnc2sc(C)c(C)c2c1=O | 8% | -0.5% | . | 7% | -2 | 2% | -4
Cc1cc(Cl)cc(C)c1OCCNCc1ccccc1 | -4%[15.4 µM] | 0.9% | 0.3 | 10% | -6 | -22% | -7
COc1cc(NC(=O)CN2c3cccc4cccc(c34)S2(=O)=O)cc(OC)c1OC | 18% | -16% | 0.7 | -27% | -12 | -25% | ?
O=C(/C=C1\NC2(CCCC2)Cc2ccccc21)C(=O)N/N=C/c1ccc(O)c(O)c1 | -4% | -3.2% | . | -9% | 1 | 3% | -8
CCS(=O)(=O)Nc1cccc(C2=NN(C(C)=O)C(c3cccs3)C2)c1 (stereo not given) | ? | . | -0.7 | -2% | 31 | 4% | 1
COc1cc(S(=O)(=O)N2CCCCC2)ccc1NC(=O)c1ccncc1 | 1%[15.4 µM] | . | -0.1 | -14% | 8 | 14% | -9
COc1cc(C(=O)OCCN2CCCCC2)ccc1O | 0% | -4.6% | -3.5 | 5% | -6 | 15% | -2
COc1ccc(C(C(=O)NC(C)(C)C)N(C(=O)Cn2nnc3ccccc32)c2cccc(C(C)=O)c2)cc1O (stereo not given) | 1%[15.4 µM] | . | -1.1 | 6% | 8 | 21% | -2
CCOC(=O)c1cc(C#N)c(C)nc1N(CC)CC | -14%[15.4 µM] | . | 0.5 | -16% | 0 | 0% | -12
CCn1cc(CN2CCC(n3nccc3NC(=O)Cc3ccccc3)CC2)c(C)n1 | 3% | 0.5% | . | 7% | -1 | 14% | 7
O=C(Nc1ccc(Br)cc1)C1CCN(C(=O)c2ccco2)CC1 | 18%[15.4 µM] | -0.8% | -0.1 | -13% | 0 | 4% | -12
COCCNC(=O)C(c1ccc(C)o1)N(Cc1ccc(F)cc1)C(=O)Cn1nnc2ccccc21 (stereo not given) | -16% | 0.6% | 1.9 | -4% | 2 | 12% | -3
C[n+]1ccc(C(=O)N/N=C/c2ccco2)cc1 | -3% | -1.0% | 0.6 | 1% | 30 | ? | -6
CC(C)CC(=O)NNC(=S)Nc1ccc(S(N)(=O)=O)cc1 | -4%[15.4 µM] | . | 1.0 | . | -2 | 20µM* | -10
COc1ccc(N2CCN(C(=O)c3cc(-c4cccs4)nc4ccccc34)CC2)cc1 | 2%[15.4 µM] | . | 3.2 | -20% | 16 | 10% | 5
O=C(Oc1ccc(OC(=O)N2CCCCC2)cc1)c1ccccc1 | -4% | 0.2% | -2.0 | 3% | 5 | 8% | 5
O=C(c1nc2ccccc2s1)N1CCN(c2ccccn2)CC1 | -37% | 1.9% | -0.8 | 12% | -7 | 17% | -14
O=C(COC(=O)C1(c2cccc(F)c2)CCCC1)NCc1ccc2c(c1)OCO2 | -9%[15.4 µM] | -1.0% | 2.0 | ? | 20 | 3% | -14
CC(Cc1cccs1)NC(=O)c1cccc(Cl)c1 (stereo not given) | -1% | . | -1.3 | -2% | 16 | 3% | -16
COc1cccc(C2/C(=C(/O)c3ccc4c(c3)CC(C)O4)C(=O)C(=O)N2CC2CCCO2)c1 (stereo not given) | ? | -3.4% | . | -1% | -3 | 9% | -5
COc1ccc(Cl)cc1N(CC(=O)N1CCCCC1)S(C)(=O)=O | ? | . | -1.1 | -3% | 21 | -12% | -9
CCN(CC)c1ccc(/C=C(/C#N)c2nc3ccccc3[nH]2)c(OC(C)C)c1 | ? | 0.6% | ? | -10% | 1 | 2% | .
Cc1ccc(-c2cc(-c3nnc(SCC(=O)N(C)CCC#N)n3N)c3ccccc3n2)cc1 | 0% | 16µM* | -0.4 | -18% | -3 | 1% | 29
CSCC[C@H](NS(=O)(=O)c1ccc(C)cc1)C(=O)N1CCC(C(=O)N[C@@H](C)C(=O)O)CC1 | . | 1.4% | -2.8 | 5% | . | 11% | 3
CC(=O)c1ccc(N(C(=O)c2csnn2)C(C(=O)NC2CCCC2)c2ccccc2)cc1 (stereo not given) | 7% | . | 0.0 | -1% | -4 | 5% | 17
Cc1ccc(NCc2nnc(SCC(N)=O)o2)c(C)c1 | 11%[15.4 µM] | . | -3.1 | 1% | -2 | -28% | 4
CC(=O)NN1C(=O)/C(=C2/Sc3ccc(Cl)cc3N2C)SC1=S | 22%[15.4 µM] | -1.4% | 20 | -13% | 8 | -6% | -5
COCc1cc(S(=O)c2ccc(Cl)cc2)nc(C)n1 (stereo not given) | -24% | 0.7% | -1.7 | -1% | 16 | 79µM* | 9
C=CCNC(=O)COc1ccc(S(=O)(=O)N2CCCC2)cc1 | -2%[15.4 µM] | . | -9.2 | 3% | -7 | 18% | -7
CCCC(=O)Nc1ccccc1N1CCN(C(=O)C(C)C)CC1 | -44%[inhibitor] | -3.5% | 2.9 | -5% | -6 | -5% | 4
COc1cc(OC)cc(C(=O)NCC(=O)N2CC=C(c3ccccc3)CC2)c1 | 7% | -4.6% | . | 8% | -15 | . | 13
CCOC(=O)C1(Cc2cccc(Cl)c2)CCCN(C(=O)C2CC2)C1 (stereo not given) | 12%[15.4 µM] | . | 0.2 | 0% | -5 | -4% | -16
COc1ccccc1/C=C/CN1CCCC(CCC(=O)NCc2ccc(F)c(F)c2)C1 (stereo not given) | -24% | . | 6.8 | -16% | -2 | 4% | 2
COc1ccc(OCCCC(=O)Nc2cccc(SC)c2)cc1 | -5% | -1.0% | 4.2 | 3% | 38 | 16% | -7
O=C(CC1C(=O)NCCN1Cc1ccc(F)cc1)NC1CCCCCCC1 (stereo not given) | -43%[inhibitor] | -7.4% | . | 5% | 14 | -6% | 0
CCc1cc2c(SCC(=O)N(C)C3CCS(=O)(=O)C3)ncnc2s1 (stereo not given) | 1%[15.4 µM] | . | 0.6 | 3% | -2 | 14% | 0
COc1ccc([C@H]2[C@H](C(=O)C(C)(C)C)N3N=Cc4ccccc4C3[C@]23N=C(c2ccccc2)OC3=O)cc1OC (stereo not given in full) | -14% | -2.0% | 4.6 | -1% | 6 | -2% | 8
CC(=O)Nc1ccc(NC(=O)CNS(=O)(=O)c2ccc(C)cc2)cc1 | 20% | 0.0% | 1.7 | -2% | -4 | 7% | -11
CCN(CC)c1ccc(NC(=O)COc2ccccc2C#N)cc1S(=O)(=O)Nc1ccccc1OC | 12%[15.4 µM] | . | 4.3 | 5% | -23 | ? | -13
O=C(NC(=S)Nc1ncccn1)c1ccccc1Cl | -15% | -12% | 4.6 | 8% | 27 | 32µM* | 12
COc1cc(/C=N/NC(=O)CCc2c(C)n[nH]c2C)ccc1O | 12% | ? | 0.8 | 16% | 2 | 11% | 3
Cn1cnc2c1c(=O)n(CC(O)CO)c(=O)n2C (stereo not given) | 11% | -3.4% | -2.9 | 7% | -10 | 21% | 0
CN1/C(=C\C(=O)c2cccs2)Sc2ccccc21 | -13% | -3.5% | -1.0 | -5% | -15 | 50µM* | -17
COc1cccc(/C=C2\Oc3cc(OC(=O)N4CCOCC4)ccc3C2=O)c1 | -1% | . | -0.3 | 3% | -14 | -4% | -4
O=C1COc2ccc(-c3csc(NCCc4ccccc4)n3)cc2N1 | -28% | 0.7% | -4.1 | -3% | 18 | -14% | 0
CCCC(=O)Nc1ccc(C(=O)N/N=C2\CC(=O)CC(C)(C)C2)cc1 | -12% | -1.9% | -0.7 | 11% | 18 | -9% | 26
O=C(Cn1c(=O)n(Cc2ccc3c(c2)OCO3)c(=O)c2ccccc21)N1CCCc2ccccc21 | -35%[inhibitor] | -16% | 3.5 | -13%[15.4 µM] | -19 | 14% | 4
